c-Myc SMM – c-Myc (human) binding | P01106 | small molecule microarray, His-c-Myc binding, anti-His fluorescence | calls only | 17,000 tested, 1.5% active;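 active = spot fluorescence over background with P-value below 7% in all four replicate spots, showing protein binding; compounds were printed on slides so no solution concentration is given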;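 note: score is binary with 100 for all four spots passing and 0 otherwise; about 2 pmol printed per array spot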
STAT3 binder – binds human STAT3 on microarray | P40763 | Small molecule microarray, His-STAT3 binding, anti-His fluorescence | calls only | 17,000 tested, 0.2% active;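 active = compounds whose four printed spots each show fluorescence over background unusually high for their array block, chance value under 7%; compounds were printed on slides so no solution concentration is given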;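 note: about 2 pmol printed per array spot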
Target sequence (P40763 whole entry, looked up): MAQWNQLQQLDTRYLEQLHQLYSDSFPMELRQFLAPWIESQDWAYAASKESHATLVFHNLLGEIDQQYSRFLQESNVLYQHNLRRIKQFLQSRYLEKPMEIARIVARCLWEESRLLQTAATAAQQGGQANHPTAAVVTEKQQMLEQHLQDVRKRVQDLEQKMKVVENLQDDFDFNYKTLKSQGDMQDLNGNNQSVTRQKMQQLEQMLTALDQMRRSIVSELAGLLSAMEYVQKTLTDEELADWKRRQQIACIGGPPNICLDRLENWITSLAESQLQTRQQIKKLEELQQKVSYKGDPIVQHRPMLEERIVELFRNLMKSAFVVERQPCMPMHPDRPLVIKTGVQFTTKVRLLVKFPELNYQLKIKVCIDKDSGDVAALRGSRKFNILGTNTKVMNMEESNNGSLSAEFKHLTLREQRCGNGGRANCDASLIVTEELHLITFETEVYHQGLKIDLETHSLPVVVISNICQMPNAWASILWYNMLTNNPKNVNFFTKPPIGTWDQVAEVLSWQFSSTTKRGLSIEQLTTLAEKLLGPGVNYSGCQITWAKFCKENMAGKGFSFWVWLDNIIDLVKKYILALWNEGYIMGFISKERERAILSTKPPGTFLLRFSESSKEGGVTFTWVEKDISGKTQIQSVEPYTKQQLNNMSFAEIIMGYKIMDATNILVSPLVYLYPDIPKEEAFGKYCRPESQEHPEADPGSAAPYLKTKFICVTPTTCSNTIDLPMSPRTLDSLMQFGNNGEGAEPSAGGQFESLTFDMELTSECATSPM
ID4 SMM – ID4 (human) binding. calls only. P47928. 31,000 tested, 1.2% active. AID 624137. small molecule microarray, Flag-ID4 binding, fluorescence F/B;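 active = spot signal over background at p below 0.07 in all four prints; compounds were printed on slides so no solution concentration is given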;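 note: a binder raises fluorescence above local background on the spot; about 2 pmol printed per array spot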
Target sequence (P47928 whole entry, looked up): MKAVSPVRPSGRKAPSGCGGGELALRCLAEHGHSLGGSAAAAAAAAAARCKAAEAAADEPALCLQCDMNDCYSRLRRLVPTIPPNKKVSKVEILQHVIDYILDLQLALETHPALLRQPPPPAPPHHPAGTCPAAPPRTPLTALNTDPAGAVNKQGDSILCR
p53 mut binder – binds human mutant p53 on microarray; small molecule microarray binding, anti-GST fluorescence; calls only; AID 624136; 17,000 tested, 0.4% active;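 active = compounds whose four printed spots each glow above background more than chance allows, each with a p-value under 7%; compounds were printed on slides so no solution concentration is given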;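 note: about 2 pmol printed per array spot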
Calls only; i = inactive; . = not tested or not shown; + = active, no number. Not all compounds are listed; the hit share may differ from the screen's.

canonical_smiles	c-Myc SMM	STAT3 binder	ID4 SMM	p53 mut binder
COc1ccc(-n2c(SCC(=O)N3CCOCC3)nnc2-c2ccccc2)cc1	i	i	i	i
CCS(=O)(=O)c1ccc2nc(SCC(=O)n3c4c(c5ccccc53)CCCC4)oc2c1	i	i	i	i
O=C(NCc1ccccc1)[C@@H]1c2ccccc2C(=O)N(CC23CC4CC(CC(C4)C2)C3)[C@H]1c1ccc(CO)cc1	i	i	i	i
COc1ccc(NC(=O)Cn2c(=O)n(-c3ccc(Cl)cc3)c(=O)c3c4c(sc32)CCCC4)cc1	i	i	i	i
Cc1ccc(S(=O)(=O)Nc2ccc3c(c2)CC(=O)N([C@@H](C)CO)C[C@@H](C)[C@H](CN(C)C(=O)Nc2c(C)noc2C)O3)cc1	i	i	i	i
O=c1c2ccccc2[nH]c(=S)n1CCCn1ccnc1	i	i	i	i
C[C@@H]1CN([C@@H](C)CO)C(=O)c2cc(N(C)C)ccc2O[C@@H]1CN(C)Cc1ccc2c(c1)OCO2	i	i	i	i
COC(=O)CSc1nc2sc3c(c2c(=O)n1Cc1ccccc1)CCCC3	i	i	i	i
C=CCOC(=O)[C@H]1[C@@H]2C(=O)O[C@@H](c3ccccc3)[C@@H](c3ccccc3)N2[C@@H](c2ccc(OCCOC(=O)[C@H]3C[C@H]4C(=O)N[C@@H](CCCCNC(C)=O)C(=O)N4[C@H]3c3cccc(OCCO)c3)cc2)[C@]12C(=O)Nc1ccccc12	i	i	.	i
COc1ccc(CN(C)C[C@H]2Oc3ccc(NS(=O)(=O)c4cn(C)cn4)cc3C(=O)N([C@H](C)CO)C[C@H]2C)cc1	i	i	.	i
C[C@H](CO)N1C[C@H](C)[C@H](CN(C)C(=O)CCC(F)(F)F)OCCCC[C@H](C)Oc2ccc(N(C)C)cc2C1=O	i	i	i	i
CC(CO)(CO)NC(=O)NC1CCCCC1	i	i	i	i
CC(C)NC(=O)N(C)C[C@@H]1OCCCC[C@H](C)Oc2ccc(NC(=O)Nc3cccc4ccccc34)cc2C(=O)N([C@@H](C)CO)C[C@H]1C	i	i	i	i
Cc1ccc(-n2c(SCC(=O)c3ccccc3)nnc2-c2ccncc2)cc1C	i	i	i	i
COc1c2c(c(C)c3c1C(=O)OC3)OC1(C)CC(O)C(C(C)(C)O)C(C)(CCC(=O)O)C1C2 (stereo not drawn)	i	i	i	i
COc1cc(-c2cc(=O)c3c(O)c(OC)c(OC)cc3o2)cc(OC)c1O	i	i	.	i
CS(=O)(=O)N(CC(=O)NC1CC1)c1cccc(C(F)(F)F)c1	i	i	i	i
CC(C)NC(=O)Nc1cccc2c1O[C@@H](CN(C)Cc1ccccc1)[C@H](C)CN([C@@H](C)CO)C2=O	i	i	i	i
Cc1ccc(S(=O)(=O)Nc2ccc3c(c2)CC(=O)N([C@H](C)CO)C[C@H](C)[C@@H](CN(C)C(=O)Nc2cccc4ccccc24)O3)cc1	i	i	.	i
CC(C)=CCC[C@@](C)(O)[C@H]1CC[C@]2(C)C1CC(O)C1[C@]3(C)C(CC[C@]12C)C(C)(C)[C@@H](O)C[C@H]3O (stereo partly drawn)	i	i	.	i
Cc1cc(C(=O)Nc2cccc3c2O[C@H](CN(C)CC2CC2)[C@H](C)CN([C@@H](C)CO)C3=O)n(C)n1	i	i	i	i
C[C@@H]1CCCCO[C@@H](CN(C)S(=O)(=O)c2cccs2)[C@@H](C)CN([C@H](C)CO)C(=O)c2cc(NS(=O)(=O)c3cccs3)ccc2O1	i	i	i	i
CNC[C@@H]1OCCCC[C@H](C)Oc2ccc(NC(=O)Nc3ccc(C(F)(F)F)cc3)cc2C(=O)N([C@@H](C)CO)C[C@@H]1C	i	i	i	i
C[C@H](CO)N1C[C@H](C)[C@H](CN(C)S(=O)(=O)c2cn(C)cn2)Oc2c(NC(=O)NC3CCCCC3)cccc2C1=O	i	i	i	i
O=C1O[C@@H](c2ccccc2)[C@@H](c2ccccc2)N2[C@@H](c3ccccc3OCCO)[C@]3(C(=O)Nc4ccccc43)[C@@H](C(=O)O)[C@H]12	i	i	i	i
C[C@@H]1CCCCO[C@@H](CN(C)S(=O)(=O)c2cn(C)cn2)[C@@H](C)CN([C@@H](C)CO)C(=O)c2cc(NC(=O)c3ccccc3)ccc2O1	i	i	i	i
C[C@@H]1CN([C@@H](C)CO)C(=O)c2cccc(NS(C)(=O)=O)c2O[C@@H]1CN(C)C(=O)Nc1cccc2ccccc12	i	i	i	i
O=S(=O)(N[C@@H]1CCCN(Cc2ccc(OCCO)cc2)C1)c1cc(Cl)ccc1Cl	i	i	.	i
CC[C@H](C)C(=O)O[C@H]1CCC=C2C=C[C@H](C)C(CCC3C[C@@H](O)CC(=O)O3)[C@H]21 (stereo partly drawn)	i	i	.	i
CC(C)NC(=O)N(C)C[C@@H]1Oc2ccc(NC(=O)Nc3ccc(F)cc3)cc2CC(=O)N([C@H](C)CO)C[C@@H]1C	i	i	.	i
O=C(CSc1nnc2scc(-c3ccccc3)n12)Nc1nsc(-c2ccccc2)n1	i	i	i	i
COc1ccc(COCC23N=C4SCC(=O)N4[C@H](c4ccccc4O2)[C@H]3CO)cc1	i	i	i	i
Cc1ccc(S(=O)(=O)N(C)C[C@@H]2Oc3ccc(NC(=O)C4CC4)cc3CC(=O)N([C@H](C)CO)C[C@H]2C)cc1	i	i	i	i
Cc1noc(C)c1NC(=O)N(C)C[C@H]1Oc2ccc(NC(=O)Nc3ccc4c(c3)OCO4)cc2CC(=O)N([C@H](C)CO)C[C@H]1C	i	i	i	i
C[C@H](CO)N1C[C@H](C)[C@H](CN(C)C)Oc2ccc(NC(=O)CCCN(C)C)cc2C1=O	i	i	i	i
COc1cc2c(cc1OC)CN(C(=O)[C@@H]1[C@H]3C(=O)O[C@H](c4ccccc4)[C@H](c4ccccc4)N3[C@H](c3ccccc3OCCO)[C@@]13C(=O)Nc1ccc(C#CCNC(N)=O)cc13)CC2	i	i	.	i
COc1ccc(CN(C)C[C@@H]2Oc3ccc(NC(=O)Nc4ccc5c(c4)OCO5)cc3CC(=O)N([C@H](C)CO)C[C@@H]2C)cc1	i	i	i	i
C=CCNc1ncnc2ccc(Br)cc12	i	i	i	i
COc1ccc(NC(=O)Nc2ccc3c(c2)C(=O)N([C@H](C)CO)C[C@@H](C)[C@@H](CN(C)S(=O)(=O)c2cn(C)cn2)O3)cc1	i	i	i	i
COc1ccc(S(=O)(=O)N(C)C[C@H]2Oc3ccc(NC(=O)C4CC4)cc3C(=O)N([C@H](C)CO)C[C@H]2C)cc1	i	i	i	i
COc1ccc(CN(C)C[C@H]2Oc3c(NC(=O)c4cnccn4)cccc3C(=O)N([C@@H](C)CO)C[C@@H]2C)cc1	i	i	i	i
CC(C)NC(=O)Nc1ccc2c(c1)C(=O)N([C@@H](C)CO)C[C@@H](C)[C@@H](CN(C)C(=O)Nc1ccccc1)OCCCC[C@H](C)O2	i	i	i	i
Cc1noc(C)c1NC(=O)Nc1cccc2c1O[C@@H](CN(C)Cc1ccc(C(F)(F)F)cc1)[C@H](C)CN([C@H](C)CO)C2=O	i	i	i	i
O=C(NCc1ccccc1)C1=C[C@H](c2ccc3c(c2)OCO3)C[C@H](OCCCCO)O1	i	i	.	i
CC(C)(C)n1nc(-c2cccc3ccccc23)c2c(N)ncnc21	i	i	i	i
C[C@@H]1CN([C@H](C)CO)C(=O)c2cc(NC(=O)Nc3ccccc3)ccc2O[C@@H](C)CCCCO[C@H]1CN(C)C(=O)C1CCCCC1	i	i	i	i
O=C(O)C1CCCCC1C(=O)Nc1ccc(S(=O)(=O)N2CCCCC2)cc1 (stereo not drawn)	i	i	i	i
Cc1ccc(OCC(=O)Nc2cc(Cl)ccc2N2CCOCC2)c(C)c1	i	i	i	i
C/C=C(\C)C(=O)O[C@@H]1[C@@H](OC(C)=O)C2[C@@]3(C)CC[C@H](OC4CC(OC)C(OC5CC(OC)C(OC6CC(OC)C(OC7OC(C)C(OC8OC(CO)C(O)C(O)C8O)C(OC)C7O)C(C)O6)C(C)O5)C(C)O4)CC3=CC[C@@]2(O)[C@@]2(O)CC[C@H](C(C)=O)[C@@]12C (stereo partly drawn)	+	i	i	i
COc1ccc(NC(=O)Nc2cccc3c2O[C@@H](CN(C)S(=O)(=O)c2ccc(Cl)cc2)[C@H](C)CN([C@@H](C)CO)C3=O)cc1	i	i	i	i
C[C@@H]1CN([C@H](C)CO)C(=O)c2cccc(NC(=O)Nc3ccc(C(F)(F)F)cc3)c2O[C@@H]1CN(C)Cc1ccncc1	i	i	i	i
Cc1ccnc(SCC(=O)Nc2sc3c(c2C#N)CCC(C(C)(C)C)C3)n1 (stereo not drawn)	i	i	i	i
C[C@@H]1O[C@@H](OC[C@H]2O[C@@H](OCCc3ccccc3)[C@H](O)[C@@H](O)[C@@H]2O)[C@H](O)[C@H](O)[C@H]1O	i	i	.	i
CN(CC(=O)O)C(=O)c1ccc(S(=O)(=O)N2CCCC2)cc1	i	i	i	i
Cc1noc(C)c1NC(=O)N(C)C[C@@H]1Oc2c(NC(=O)c3ccc(-c4nccs4)cc3)cccc2C(=O)N([C@@H](C)CO)C[C@@H]1C	i	i	i	i
C[C@H]1CN([C@@H](C)CO)C(=O)c2cccc(NC(=O)C3CCOCC3)c2O[C@@H]1CN(C)S(=O)(=O)c1cn(C)cn1	i	i	i	i
C[C@@H]1CCCCO[C@@H](CN(C)C(=O)C2CCCCC2)[C@@H](C)CN([C@H](C)CO)C(=O)c2cc(NS(=O)(=O)c3ccccc3)ccc2O1	i	i	i	i
Cc1cccc(NC(c2ccc(C)s2)c2ccc3ccc(C)nc3c2O)n1 (stereo not drawn)	i	i	i	i
COc1ccc(CN(C)C[C@@H]2OCc3cn(nn3)CCCC(=O)N([C@@H](C)CO)C[C@H]2C)cc1	i	i	.	i
C[C@@H]1CN([C@@H](C)CO)C(=O)c2cc(N(C)C)ccc2O[C@@H]1CN(C)S(=O)(=O)c1cccs1	i	i	i	i

(cont.)
structure	c-Myc SMM	STAT3 binder	ID4 SMM	p53 mut binder
CC(C)NC(=O)Nc1ccc2c(c1)C(=O)N([C@@H](C)CO)C[C@H](C)[C@H](CN(C)Cc1ccncc1)OCCCC[C@H](C)O2	i	i	i	i
COc1ccc(NC(=O)CCC(=O)O)cc1	i	i	i	i
Cc1cccc(N(CC(=O)NC(C)(C)C)S(=O)(=O)c2ccc(Cl)cc2)c1	i	i	i	i
Cc1noc(C)c1S(=O)(=O)N(C)C[C@@H]1Oc2c(NC(=O)c3ccc(-c4nccs4)cc3)cccc2C(=O)N([C@@H](C)CO)C[C@@H]1C	i	i	i	i
C[C@H](CO)N1C[C@H](C)[C@H](CN(C)C(=O)NC2CCCCC2)Oc2ccc(NC(=O)Cc3ccccc3)cc2CC1=O	i	i	i	i
C[C@@H]1CCCCO[C@H](CN(C)S(=O)(=O)c2cccs2)[C@H](C)CN([C@H](C)CO)C(=O)c2cc(NC(=O)CCC(F)(F)F)ccc2O1	i	i	.	i
CNC[C@H]1OCCCC[C@@H](C)Oc2ccc(NC(=O)NC(C)C)cc2C(=O)N([C@@H](C)CO)C[C@@H]1C	i	i	i	i
C[C@@H]1CCCCO[C@@H](CN(C)C(=O)c2ccccc2)[C@@H](C)CN([C@H](C)CO)C(=O)c2cc(NS(C)(=O)=O)ccc2O1	i	i	i	i
COc1ccc(S(=O)(=O)Nc2cccc3c2O[C@@H](CN(C)S(=O)(=O)c2cccs2)[C@H](C)CN([C@@H](C)CO)C3=O)cc1	i	i	i	i
C[C@@H]1CCCCO[C@@H](CN(C)C(=O)CCC(F)(F)F)[C@@H](C)CN([C@@H](C)CO)C(=O)c2cc(N(C)C)ccc2O1	i	i	i	i
CNC[C@@H]1Oc2c(N)cccc2C(=O)N([C@@H](C)CO)C[C@@H]1C	i	i	i	i
O=C(CN1C(=O)C2C3C=CC(C4CC34)C2C1=O)Oc1ccccc1C(=O)Oc1ccccc1 (stereo not drawn)	i	i	i	i
C[C@@H]1CN([C@H](C)CO)C(=O)c2cc(NC(=O)c3ccncc3)ccc2O[C@@H](C)CCCCO[C@@H]1CN(C)Cc1ccc(C(=O)O)cc1	i	i	i	i
C[C@@H]1CCCCO[C@@H](CN(C)C(=O)c2ccncc2)[C@@H](C)CN([C@H](C)CO)C(=O)c2cc(NS(C)(=O)=O)ccc2O1	i	i	i	i

Part of the list above, set out differently.
Compound: CNC[C@@H]1Oc2c(N)cccc2C(=O)N([C@@H](C)CO)C[C@@H]1C
  c-Myc SMM = i | STAT3 binder = i | ID4 SMM = i | p53 mut binder = i

Compound: O=C(CN1C(=O)C2C3C=CC(C4CC34)C2C1=O)Oc1ccccc1C(=O)Oc1ccccc1 (stereo not drawn)
  c-Myc SMM = i | STAT3 binder = i | ID4 SMM = i | p53 mut binder = i

Compound: C[C@@H]1CN([C@H](C)CO)C(=O)c2cc(NC(=O)c3ccncc3)ccc2O[C@@H](C)CCCCO[C@@H]1CN(C)Cc1ccc(C(=O)O)cc1
  c-Myc SMM = i | STAT3 binder = i | ID4 SMM = i | p53 mut binder = i

Compound: C[C@@H]1CCCCO[C@@H](CN(C)C(=O)c2ccncc2)[C@@H](C)CN([C@H](C)CO)C(=O)c2cc(NS(C)(=O)=O)ccc2O1
  c-Myc SMM = i | STAT3 binder = i | ID4 SMM = i | p53 mut binder = i
